VDR inhibitor: inhibitors of human vitamin D receptor. VDR-SRC2-3 peptide fluorescence polarization, 2 h. hit rate 0.93% among 400,000. AID 504847. Potency, µM, for the others: max response, negative = inhibition, most hits filed as inhibitors; active means well fitted inhibition curve with a large enough effect; further: series mostly up to about 120 µM
Target sequence (P11473 whole entry, looked up): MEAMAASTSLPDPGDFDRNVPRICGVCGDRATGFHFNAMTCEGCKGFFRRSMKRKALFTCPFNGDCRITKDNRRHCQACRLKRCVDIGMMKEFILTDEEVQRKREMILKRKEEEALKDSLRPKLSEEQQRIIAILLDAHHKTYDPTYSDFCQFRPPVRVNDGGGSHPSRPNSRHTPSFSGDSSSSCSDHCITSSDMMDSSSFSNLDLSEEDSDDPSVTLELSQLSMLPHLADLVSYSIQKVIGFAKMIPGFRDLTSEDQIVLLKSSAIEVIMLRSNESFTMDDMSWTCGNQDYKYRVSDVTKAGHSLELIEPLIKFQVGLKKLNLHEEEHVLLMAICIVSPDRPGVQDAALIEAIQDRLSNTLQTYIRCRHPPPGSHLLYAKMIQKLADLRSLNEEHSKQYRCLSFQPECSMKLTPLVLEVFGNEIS
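Measured by FP: displacement of SRC2-3 coactivator peptide from VDR by library compounds, following a two-hour ambient incubation.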
Starred values were filed as active, the others as inactive; & = joins results of further samples. On the % scale 0 is the no-effect control and ±100 the full control effect; potency means the concentration at half of the fitted maximal effect. Only part of the results is shown; rates above refer to the full screens.

structure	VDR inhibitor
Nc1nc(SCC(=O)N2CCCCCC2)[nH]c(=O)c1NC(=O)c1ccco1	-6.1%
COc1ccccc1NC(=O)c1ccc2c(Cl)c3c(nc2c1)CCCC3	-11.0%
COC(=O)c1cccc(NC(=S)Nc2cccc(Cl)c2C)c1	-2.9%
CCOC(=O)c1sc(NC(=O)C(C)Sc2nc(N)cc(=O)[nH]2)nc1C (stereo not drawn)	6.6%
NC(=O)c1c(NC(=O)CSc2nnc(-c3ccccc3)n2CC2CCCO2)sc2c1CCC2 (stereo not drawn)	-0.9%
Nc1nc2c(s1)C(=O)CCC2	-4.0%
COC(=O)C1(C(=O)OC)CC(CO)C(=O)[C@H]1c1ccccc1 (stereo partly drawn)	2.7%&-3.0%
CC1CCN(c2c(NCc3ccc(C(=O)N(C)C4CCCCC4)cc3)c(=O)c2=O)CC1	-5.3%

More records:
structure	VDR inhibitor
CC1CN(C(=O)CCC(=O)NCc2cccs2)c2cc(Cl)ccc2O1 (stereo not drawn)	14.3%
O=C(/C=C/c1ccc2ccccc2n1)N1CCN(S(=O)(=O)c2ccccc2F)CC1	-2.7%
C[C@]12c3[nH]c4ccc(Cl)cc4c3CCN1C(=O)[C@@H](CC(=O)NCCc1ccccn1)C[C@@H]2C(=O)N1CCCCC1	-17.1%
CCOC(=O)c1c(NC(=O)CSc2nnc3c(n2)[nH]c2ccccc23)sc2c1CCN(C)C2	2.2%
Cc1ccc(OCC(=O)Nc2cccc(-c3nnc(-c4ccccc4)o3)c2)c(C)c1	12.0%
CC(=O)C(Sc1ccc2nnc(-c3ccc(C)cc3)n2n1)C(C)=O	-13.0%
CN(C)N1C(N)=C(C#N)C(c2ccc(Br)cc2)C2=C1CC(C)(C)CC2=O (stereo not drawn)	10.5%
CCn1c(COc2cccc(OC)c2)nnc1SCC(=O)Nc1cccc(OC)c1	-8.4%

New compounds follow.
structure	VDR inhibitor
CCCN(CC(=O)Nc1ccccc1OC)C(=O)CSC(=S)N1CCCC1	4.6%
Cc1ccc(Cc2c(C)nc3nc(SCC(=O)NCCC(C)C)nn3c2C)cc1	16.5%
Cc1cc(-c2nn(-c3ccccc3F)cc2CN2CCCC(C(N)=O)C2)c(C)s1 (stereo not drawn)	7.7%
O=C(NCCN1C(=O)C2C3C=CC(C3)C2C1=O)N1CCOCC1 (stereo not drawn)	-1.1%
O=C(O)c1nc(-c2ccccc2)n(-c2ccccc2)n1	12.6%
O=C(Nc1cccc(S(=O)(=O)NC2=NCCCCC2)c1)c1cc(-c2ccco2)nc2ccccc12	10.9%
CCCc1c(C)nn(-c2ncccc2[N+](=O)[O-])c1C	-1.3%
O=C(COc1ccc(-c2ccccc2)cc1)N1CCCC1	8.0%

Continued.
structure	VDR inhibitor
C=CCC[C@@H](Cc1ccc(F)cc1)C(=O)OCCNC(=O)[C@@H](CC=C)CC(=O)N(CCO)Cc1ccccc1	-23.4%
COc1ccc(/C=N/N2CCN(c3ccccc3)CC2)cc1Br	6.9%
Cc1cccc(NC(=O)C2CCC(CNS(=O)(=O)c3ccc(Br)s3)CC2)c1 (stereo not drawn)	5.5%
O=C1c2ccccc2C(=O)N1c1ccc2ncccc2c1	-9.6%
COc1ccccc1CNC(=O)C1CCCN(S(=O)(=O)c2ccc3c(c2)C(C)(C)C(=O)N3C)C1 (stereo not drawn)	-2.9%
COc1ccc(C(=O)N2CCCC(C(=O)c3ccccc3OC)C2)cc1OC (stereo not drawn)	-6.9%
COc1ccc(CC(=O)Nc2cc(Cl)ccc2N2CCCC2)cc1	-8.2%
Cc1cc(C(=O)COC(=O)c2cc(Cl)ccc2N)c(C)n1Cc1ccco1	-6.4%

Reformatted with the structure last: entries from further up.
VDR inhibitor | Compound
8.0% | O=C(COc1ccc(-c2ccccc2)cc1)N1CCCC1
-23.4% | C=CCC[C@@H](Cc1ccc(F)cc1)C(=O)OCCNC(=O)[C@@H](CC=C)CC(=O)N(CCO)Cc1ccccc1

The list goes on:
structure	VDR inhibitor
O=C(CN1C(=O)c2cccnc2Oc2ccc(Cl)cc21)NCCc1ccccc1	-5.7%&13.1%
Cc1cc(Nc2ccc(F)cc2F)n2nc(C)nc2n1	-12.4%
Cc1ccc(-c2cc(C(=O)N3CCN(c4ccc(F)cc4)CC3)c3ccccc3n2)o1	-0.4%
CC(=O)Nc1ccc(NC(=O)C(C)OC(=O)c2cc(S(=O)(=O)N3CCOCC3)ccc2Cl)cc1 (stereo not drawn)	-0.3%
CCOC(=O)c1cc2c(=O)n3ccccc3nc2n(CC2CCCO2)c1=NC(=O)c1ccc(OC)cc1OC (stereo not drawn)	-10.1%
COC(=O)c1ccc(C2Nc3ccccc3NC3=C2C(=O)CC(C)(C)C3)cc1 (stereo not drawn)	-18.9%
Cc1ccc(NC(=S)N(CCCN(C)C)Cc2cc3cc4c(cc3[nH]c2=O)OCO4)c(C)c1	-8.2%
O=C(NCCc1ccc(Cl)cc1)c1ccc2c(c1)OCCO2	3.7%

Further compounds follow:
structure	VDR inhibitor
COc1ccc(OC)c(S(=O)(=O)NCCC2=CCCCC2)c1	1.5%
Cc1ccc(N=Cc2ccccc2O)cc1Cl	5.1%
O=C1C2CCCCC2C(=O)N1c1ccc(NC2CCN(Cc3ccccc3)CC2)c([N+](=O)[O-])c1 (stereo not drawn)	0.6%
O=C(N/N=C/c1coc2ccccc2c1=O)c1ccc(Cl)cc1	-12.6%
O=C(Nc1cc2c3c(c1)CC(=O)N3CCC2)c1ccccc1C(F)(F)F	-13.3%
C[C@@]12C(=O)N(c3cccc(Cl)c3)C(=O)N1[C@@H]1c3ccccc3OC[C@@H]1[C@H]2c1ccccc1	-6.5%
Cc1ccc(NC(=O)c2ncn(CC(=O)NCc3nc4ccccc4[nH]3)n2)cc1C	-10.2%
Cc1c(C=O)c2ccccn2c1C(=O)c1ccccc1	-2.0%

The list continues.
structure	VDR inhibitor
O=c1cc2c(nn1Cc1cccc([N+](=O)[O-])c1)-c1ccccc1CC2	-15.5%
COC(=O)C1=C(C)NC(C)=C(C(=O)OCCCN2CCC(c3ccccc3)(c3ccccc3)CC2)C1c1cccc([N+](=O)[O-])c1 (stereo not drawn)	-1.3%&-18.4%
Cc1ccc(-n2c(Cc3ccccc3)n[nH]c2=S)c(C)c1	11.5%
N=C(N)SCCc1ccc(CCSC(=N)N)cc1	-15.9%
Cc1nc(-c2ccccc2)sc1C(=O)CSc1ccc(Cl)cc1	-5.5%
CC(=O)Nc1ccccc1OC(C)C(=O)N1CCC(C)CC1 (stereo not drawn)	-0.8%
CC(C)C(NC(=O)c1ccccc1)C(=O)NC1CCCc2ccccc21 (stereo not drawn)	-5.4%
COc1ccc(C(=O)N2CCOC2CNC(=O)C(=O)NCc2ccccc2Cl)cc1 (stereo not drawn)	-0.5%

Carrying on:
structure	VDR inhibitor
COc1ccc(CNC(=O)Cc2c(C)c3c(O)cc(C)cc3oc2=O)cc1	10.1%
CC(C)C[C@H](NC(=O)c1nc[nH]c1C(=O)N[C@@H](CCCCNC(=O)OC(C)(C)C)C(=O)OC(C)(C)C)C(=O)OC(C)(C)C	13.5%
CC(C)C(=O)N=C1SC2CS(=O)(=O)CC2N1Cc1ccccc1 (stereo not drawn)	8.0%
O=C(NCCN1CCOCC1)c1ccc(Cl)c(S(=O)(=O)N2CCCC2)c1	-10.6%
C/C(CC(=O)Nc1ccc(OCc2ccccc2)cc1)=N\NC(=O)C(=O)Nc1ccccc1C	-3.5%
CC(=O)c1ccc(NC(=O)C(C)N(C)CC(=O)Nc2ccccc2Cl)cc1 (stereo not drawn)	4.1%
COc1ccc(-n2nc(C(=O)NCC3CCCO3)c3ccccc3c2=O)cc1 (stereo not drawn)	-9.7%
CCOc1ccc(CO[C@@H]2O[C@H](CO)[C@@H](O)[C@H](O)[C@H]2NC(C)=O)cc1OC	-9.8%

Additional structures follow:
structure	VDR inhibitor
COc1ccccc1/C=C/C=N/NC(=O)c1cnccn1	-13.6%
O=C(NCCCn1ccnc1)c1ccccc1Cl	-1.5%
COC(=O)C1=C(C)N(C2CCCCC2)C(=O)/C1=C\c1cccs1	-11.8%
CN1CCN(c2nc3c(S(=O)(=O)c4ccccc4)nnn3c3ccsc23)CC1	4.1%
N#Cc1ccc(NC(=O)COC(=O)CCNS(=O)(=O)c2ccccc2)cc1	-7.9%
Cc1cc(C)c(NC(=O)COC(=O)C2CCC(=O)N2)c(C)c1 (stereo not drawn)	-26.1%
CCOC1CCCC(n2cnc3c(=S)nc[nH]c32)O1 (stereo not drawn)	-8.7%
COc1ccc(-c2nc3n(n2)C(c2ccccc2OC)C(C(=O)Nc2cccnc2)=C(C)N3)cc1 (stereo not drawn)	-14.1%

Next entries follow.
structure	VDR inhibitor
Cc1ccc(C(C(=O)NC2CCCC2)N(Cc2cccs2)C(=O)c2csnn2)o1 (stereo not drawn)	-10.3%
C[C@@H]1C=C(C(=O)O)O[C@H](OCc2ccc(CO)cc2)C1	-11.4%
CC1(C(=O)Nc2ncc(Cc3ccc(Br)cc3)s2)Cc2ccccc2C(=O)O1 (stereo not drawn)	9.5%
Cc1ccc2c(C)nc(Nc3ncc4c(n3)CCCC4=O)nc2c1	6.1%
c1ccc2[nH]c(SCc3ccc(-c4nnco4)cc3)nc2c1	-12.9%
CC(=O)Nc1cccc(-n2nnc(SCC(N)=O)n2)c1	-2.6%
CC(=O)c1ccc(S(=O)(=O)N(CCCO)Cc2cc3cc4c(cc3[nH]c2=O)OCCO4)cc1	27.7%
COCCNC(=O)c1ccc(Cn2c(SCC(N)=O)nc3ccccc3c2=O)cc1	0.6%

The list continues:
structure	VDR inhibitor
CSc1nc(N)nc2c1ncn2C1OC(CO)C(O)C1O (stereo not drawn)	4.5%
CCSc1nc(-c2ccc(OC)cc2)n(-c2nc3ccccc3s2)n1	-21.8%
Brc1ccc2c(c1)CNc1c(ncnc1N1CCOCC1)O2	-8.2%
O=Cc1ccc2noc(-c3ccc(F)cc3)c2c1	-4.0%
Cc1cc2oc(C(=O)Nc3ccc(S(=O)(=O)Nc4ncccn4)cc3)c(C)c2cc1Cl	5.8%
CCOC(=O)Nc1ccc(S(=O)(=O)N2CCC(C)CC2)cc1	-12.4%
CSc1ccc(-c2nc(CSCC(=O)N3CCOCC3)c(C)o2)cc1	12.8%
Cc1ccc(N(CC(=O)NCc2ccc3c(c2)OCO3)C(=O)c2csnn2)cc1	-15.0%

Next part:
structure	VDR inhibitor
CC(SC(C)C(=O)NN=Cc1cccc(Cl)c1)C(=O)NN=Cc1cccc(Cl)c1 (stereo not drawn)	-19.7%
CCc1ccc(Nc2nnc(SCn3nnc4ccccc4c3=O)s2)cc1	6.1%
Cc1cnc(C(=O)Nc2nnc(C(C)C)s2)cn1	7.5%
C#CCOCCOCCOCCNc1nc(N2CCN(C(=O)[C@H](CCCCN)n3cc([C@@H](N)CO)nn3)CC2)nc(N2CCN(C(=O)[C@H](CCCCN)n3cc([C@@H](N)CC(C)C)nn3)CC2)n1	-6.0%
O=C(CN1CCCCC1)N=Nc1c(O)[nH]c2ccccc12	-12.5%
Cc1cccc(-n2ncc3c(NC4CCCCC4)ncnc32)c1	-10.7%
NC(=O)CSc1oc(-c2ccco2)nc1S(=O)(=O)c1ccccc1	3.7%
Cc1sc2nc(C3CC3)nc(SCC(=O)N3c4ccccc4CC3C)c2c1C (stereo not drawn)	-3.9%

A draw from above in order of molecular weight, ascending.
structure	VDR inhibitor
Cc1cccc(-n2ncc3c(NC4CCCCC4)ncnc32)c1	-10.7%
CCc1ccc(Nc2nnc(SCn3nnc4ccccc4c3=O)s2)cc1	6.1%
CC(SC(C)C(=O)NN=Cc1cccc(Cl)c1)C(=O)NN=Cc1cccc(Cl)c1 (stereo not drawn)	-19.7%

Remaining list, next part:
structure	VDR inhibitor
N#Cc1cnc(SCC(=O)N2CCCC2)nc1N	-0.8%
COc1ccc(NC(=O)c2ccccc2Sc2ccc(NC(C)=O)nc2)cc1	5.0%
COc1ccc(CNC(=O)CSCc2cccc(Cl)c2)cc1	-3.3%
Cc1cccc(Cn2nnc3c2C(=O)c2ccccc2C3=O)c1	-7.8%
CCc1nn(CC(=O)NCc2ccc(OC)c(OC)c2)c(=O)c2cc3sc(C)cc3n12	15.9%
COCCn1c(SCC(=O)N2CCOCC2)nnc1-c1ccncc1	-10.3%
COc1cccc(OCC(=O)NCC2CCCO2)c1 (stereo not drawn)	-3.2%
O=C(Nc1ccccn1)c1ccc(Cl)c([N+](=O)[O-])c1	0.2%

Next compounds
structure	VDR inhibitor
Cc1ccsc1/C=N/N1CCOCC1	-2.1%
O=C(c1cc(Cl)nc2ccccc12)N1CCCCC1	-0.5%
COc1cccc(-n2nnc3c(=O)n(Cc4ccccc4Cl)cnc32)c1	-28.3%
Cc1ccc(-n2nc3c(c2NC(=O)c2cc4ccccc4o2)CS(=O)(=O)C3)cc1	-13.4%
CC(C)N1C(=O)C2C(C(=O)NC3CCCCC3)C3C=CC2(O3)C1C(=O)NC1CCCC1 (stereo not drawn)	12.3%
O=C(O)CN(c1ccccc1)C1SC(=O)NC1=O (stereo not drawn)	2.9%
CCOC(=O)c1c(C)[nH]c(C)c1S(=O)(=O)N1CCC(c2ccccc2)C1 (stereo not drawn)	4.3%
Cc1cccc(/C=N/NC(=O)c2ccc(NC(=O)c3ccccc3C)cc2)n1	-8.0%

New compounds follow.
structure	VDR inhibitor
Cc1ccc(Cn2cccc2/C=C2/C(=N)N3C=CSC3=NC2=O)cc1	-8.4%
O=C(/C=C/c1ccc2c(c1)OCO2)N1CCCCC1	-27.9%
Cc1sc2ncn(CC(=O)NCCCN3CC(C)CC(C)C3)c(=O)c2c1S(=O)(=O)N1CC(C)CC(C)C1 (stereo not drawn)	4.0%
CCCCN1CCN=C1N(C)C	-8.3%
O=C(COC(=O)c1cc2ccccc2cc1O)Nc1ccccc1F	8.3%
O=C(NCC1(c2ccccc2)CCOCC1)c1cccs1	-2.8%
Cc1ccc(S(=O)(=O)c2nc(-c3ccc(Cl)cc3)oc2N2CCCCCC2)cc1	-7.7%
COc1cc(C)c(S(=O)(=O)Nc2cccc(-c3ccc(N4CCCC4)nn3)c2)cc1C	16.1%
O=C(O)c1c(N2CCCCC2)ccc([N+](=O)[O-])c1N1CCCCC1	-9.1%

Bioassay records (PubChem)
